Bioassay records deposited in PubChem BioAssay by several laboratories.
AF4-AF9 inh = inhibitors of human MLL-AF4/AF9 interaction; P42568; AlphaScreen, biotin-AF4 peptide binding to FLAG-AF9; inhibition, % at 10 µM; 350,000 tested, 0.47% active;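 active = every replicate reaching a set inhibition limit, whatever the replicate mean, cut at about 25% in these data; inconclusive = mean inhibition reaches that limit but some replicates miss it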;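 note: 0% = plate neutral control median and 100% = total signal loss; the record names both 10 and 1 µM as test concentration; the first replicate is given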
Target sequence (P42568 whole entry, looked up): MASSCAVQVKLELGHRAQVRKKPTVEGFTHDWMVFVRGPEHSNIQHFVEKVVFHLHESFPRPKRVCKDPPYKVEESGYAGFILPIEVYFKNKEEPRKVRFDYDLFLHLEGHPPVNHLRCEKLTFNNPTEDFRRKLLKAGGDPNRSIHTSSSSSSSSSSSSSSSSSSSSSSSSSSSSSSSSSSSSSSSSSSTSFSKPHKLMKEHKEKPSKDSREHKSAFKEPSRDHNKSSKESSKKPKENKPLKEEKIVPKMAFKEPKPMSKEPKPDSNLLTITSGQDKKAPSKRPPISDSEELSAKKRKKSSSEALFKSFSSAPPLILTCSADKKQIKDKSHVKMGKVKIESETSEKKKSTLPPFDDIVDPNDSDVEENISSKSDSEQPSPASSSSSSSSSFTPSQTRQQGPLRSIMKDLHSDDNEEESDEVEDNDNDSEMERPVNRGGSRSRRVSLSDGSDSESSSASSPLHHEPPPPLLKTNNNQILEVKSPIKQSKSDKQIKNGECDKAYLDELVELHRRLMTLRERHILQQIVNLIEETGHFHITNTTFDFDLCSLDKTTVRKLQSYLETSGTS
HNF4A DNA FP = change in binding of human HNF4 alpha to DNA; P41235; HNF4a-FITC DNA binding, fluorescence polarization, 1 h; activity change, % at 10 µM; 360,000 tested, 0.3% active; AID 1224865; in the data active = activity change above about 30%, passing the limit was not always enough;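 note: controls were the assay level and a saturating level of protein; the project sought stronger binding though the title names inhibitors; some compounds called inactive have numbers as strong as hits; positive values seem to mean higher polarization but the record does not say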
Target sequence (P41235 whole entry, looked up): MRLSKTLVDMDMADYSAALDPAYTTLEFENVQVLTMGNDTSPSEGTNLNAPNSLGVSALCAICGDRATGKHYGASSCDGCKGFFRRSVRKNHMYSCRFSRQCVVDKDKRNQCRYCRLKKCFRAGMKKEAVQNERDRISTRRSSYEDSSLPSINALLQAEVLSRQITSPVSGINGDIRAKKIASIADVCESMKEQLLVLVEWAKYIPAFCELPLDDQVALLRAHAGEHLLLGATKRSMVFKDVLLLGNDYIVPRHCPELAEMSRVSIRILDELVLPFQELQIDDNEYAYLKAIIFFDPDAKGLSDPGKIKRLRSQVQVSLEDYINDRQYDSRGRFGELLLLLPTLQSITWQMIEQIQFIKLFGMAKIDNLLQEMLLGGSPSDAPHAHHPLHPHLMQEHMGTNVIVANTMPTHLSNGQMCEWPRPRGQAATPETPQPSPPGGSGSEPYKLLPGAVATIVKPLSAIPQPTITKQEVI
UCH37 DUB inh = blocks the human deubiquitinase UCH37. Q9Y5K5. purified proteasome/UCH37, Ub-AMC cleavage fluorescence. inhibition, % (no concentration beside the values). 330,000 tested, 0.33% active;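 active = mean of two replicates above 20%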;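 note: 0% = compound-free wells with enzyme and 100% = wells lacking proteasome; stock transfer was 100 nL into about 20 µL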
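Material: human UCH37 enzyme supplied as purified proteasome complex / Amount: 0.15 nM proteasome as dispensed / Buffer or medium: pH 7.4 Tris-HCl (50 mM) with ovalbumin, ATP-MgCl2, DTT / Times: preincubation 30 min, reaction 25 min, room temperature / Technique: AMC fluorescence from Ub-AMC cleavage, excitation 355 nm, emission 460 nm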
FGF22 binding = shifts melting point of recombinant human FGF22; Q9HCT0; recombinant FGF22 thermal shift, SYPRO orange fluorescence; percent of sucrose octasulfate shift, DMSO zero; calls only at 9.99 µM; 340,000 tested, 1.5% active; AID 651658;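 active = melting point raised past a set limit in the mean and every replicate; inconclusive = no clear call; three in four hits are not shown here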
Vif A3G = HIV-1 Vif–A3G interaction blockers – biochemical, TR-FRET, GST-Vif 1-94, biotin-A3G peptide, dose response retest, primary screen (AID 1117319) | TR-FRET GST-Vif / biotin-A3G peptide binding; higher % means a stronger effect; test concentration not given here; strong numbers were not always called active | inhibition, %; hits with a dose series show IC50 in µM | 260,000 tested, 0.57% active;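 active = above the screen mean plus three standard deviations and confirmed in dose response; inconclusive = results disagree or hit not tested in dose response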;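 note: Vif residues 1-94 fused to GST binding biotinylated APOBEC3G peptide 110-148; 0% = full assay without inhibitor and 100% = GST in place of GST-Vif; retest series ran down from 100 µM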
Ecoli growth = E. coli growth inhibition. Escherichia coli growth, OD600, 23 h; hits give low values. OD600 absorbance (concentration not given with the values). 330,000 tested, 0.21% active;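 active = OD600 absorbance below the run mean of sample wells minus 3.6 SD, in any replicate, cut at about 0.56 in these data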;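 note: stock transfer was 300 nL into about 60 µL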
RanGTP-Impb inh = inhibitors of RanGTP-importin-beta interaction, primary screen, biochemical, FRET, CFP-Ran, YFP-importin-beta, homogeneous; 300,000 tested, 1.1% active; inhibition, % (concentration not given with the values); AID 2216; cell-free CFP-Ran/YFP-importin-beta FRET ratio;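 active = most replicates above 15%; inconclusive = exactly half above 15%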;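 note: 0% = DMSO wells and 100% = Ran loaded with GDP instead of GTP; wells of about 40 µL received 100 nL stock; the first replicate is given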
* hit, by the source's call; i = inactive; ? = inconclusive; / = no result given. These rows are one share of the data (hit frequency here may not be typical).

SMILES	AF4-AF9 inh	HNF4A DNA FP	UCH37 DUB inh	FGF22 binding	Vif A3G	Ecoli growth	RanGTP-Impb inh
O=C(Cc1cnn(-c2ccccc2)c1)c1ccc(O)c(O)c1O	/	-3.4	8.3	/	31%	0.64	1.7
C[N+]1(CCCCCCC(=O)/C=N/O)CCCCCC1	/	4.8	/	/	3%	/	-5.4
Cc1ccc(Sc2nc(-c3ccccc3)ccc2C#N)cc1	/	1.2	-3.0	/	-22%	0.72	1.6
Cc1ccc(-c2csc(NC(=O)c3ccc(S(=O)(=O)N4CCc5ccccc54)cc3)n2)cc1	4.2	-2.7	0.9	i	/	0.74	0.3
CCCSc1nc2cc(C)c(C)cc2n1CC(O)CO (stereo not given)	0.4	-0.6	2.6	/	/	0.68	7.7
COc1ccc(S(=O)(=O)NC(C)C(=O)NCc2cccnc2)cc1Cl (stereo not given)	-0.8	-1.0	-1.4	i	/	0.68	9.8
Cc1cc2cc(CN(Cc3ccc4c(c3)OCO4)C(=O)c3ccco3)c(=O)[nH]c2cc1C	/	-2.1	-1.8	/	7%	0.73	4.0
CC(=O)Nc1ccccc1C(=O)C(=O)NCCc1ccccc1	-2.7	-2.0	0.5	i	6%	0.7	4.2
COc1ccc(Cl)cc1NC(=O)NCc1ccc2c(c1)OCO2	0.6	-3.9	2.4	i	-6%	0.72	4.5
Cc1oc2cc(O)ccc2c(=O)c1-c1nncn1-c1ccccc1	1.0	-24	-70	i	15%	0.71	37*
COc1ccccc1NS(=O)(=O)c1cc(NC(=O)C(C)NC(N)=O)ccc1N1CCCC1 (stereo not given)	4.2	0.5	-0.2	i	-10%	0.7	/
C/C(=N\NC(=O)c1sccc1C)c1ccncc1	-7.4	0.9	/	i	0%	/	1.5
COc1ccccc1CNC(=O)[C@H](C)NC(=O)C1CCN(C(=O)[C@@H](N)Cc2ccccc2)CC1	0.1	5.6	5.5	i	/	0.76	-0.1
COc1ccc(/C=N/Nc2ccc(C(F)(F)F)cc2[N+](=O)[O-])cc1	/	-0.2	/	/	-12%	/	1.4
CCCCC(=O)Nc1ccc(C(=O)NNC(=S)NC(=O)c2cccs2)cc1	/	-4.4	4.7	/	?	0.71	?
O=C(NC1CCCC1)C(c1ccncc1)N(C(=O)c1csnn1)c1cccc(Cl)c1 (stereo not given)	-4.5	-0.8	6.9	i	/	0.65	-2.0
CCN(CC)C(=O)[C@H]1C[C@H](CC(=O)NCc2ccc(OC)c(OC)c2)C(=O)N2CCc3c([nH]c4cc(-c5ccco5)ccc34)[C@]12C	4.4	5.8	-7.7	i	10%	0.74	/
COc1ccc(C(=O)n2nc(-c3ccccc3)nc2SC)cc1	/	-0.4	5.1	/	76%	0.76	4.6
COc1ccc(NC(=O)CSc2c(C)n[nH]c2C)cc1	/	-3.1	4.6	/	0%	0.68	1.3
NNc1nc2c(F)cc(F)cc2s1	4.8	0.1	/	i	-3%	/	-2.1
O=C(CNC(=O)Cc1ccccc1)NCC(=O)OCC(=O)c1ccccc1Cl	4.6	2.1	1.8	i	2%	0.69	1.4
Cc1c(NC(=O)COC(=O)Cc2ccc(Cl)cc2)c(=O)n(-c2ccccc2)n1C	/	-1.5	1.3	/	-2%	0.69	0.2
CCN(CC)S(=O)(=O)c1cc(C(=O)Oc2cccc(-c3cnc4ccccc4n3)c2)ccc1Br	/	0.1	-0.2	/	-23%	0.74	0.5
O=C(c1ccc(F)cc1F)C1CCN(c2ccc([N+](=O)[O-])cn2)CC1	-1.0	1.7	/	i	-4%	/	1.0
O=C1c2ccccc2C(Nc2ccc(F)c(Cl)c2)N1Cc1ccco1 (stereo not given)	1.0	1.6	1.8	i	16%	0.74	0.7
COc1ccc2nc(CCN(C)C(=O)C3CCC(=O)N(Cc4cccc(F)c4)C3)[nH]c2c1 (stereo not given)	0.7	6.9	2.9	i	/	0.67	-1.2
Cc1cccc(NC(=S)N2CCN(c3ccccc3)CC2)c1	-2.8	1.1	0.7	i	0%	0.7	5.2
Cc1cc(Cn2nc(C(=O)NCc3cccc(Br)c3)cc2-c2ccccc2)on1	9.4	-0.7	8.5	i	/	0.7	/
Cc1c(F)cccc1NC(=O)CSCC(=O)Nc1ccccc1	/	2.7	3.4	/	5%	0.82	1.0
COc1ccc(C2C(C(C)=O)=C(O)C(=O)N2c2nccs2)cc1OC (stereo not given)	/	1.6	11	/	/	0.71	1.4
CC1CCCC(NC(=O)c2ccc(CNc3c(N4CCCC4)c(=O)c3=O)cc2)C1C (stereo not given)	-3.9	0.8	7.0	i	1%	0.71	-1.1
COc1cc(NC(=S)NCc2cccnc2)c(OC)cc1Cl	1.1	1.5	-0.4	i	2%	0.66	0.2
CCc1nc2ccc(C(=O)N3CCN(c4ccccc4)CC3)cn2c1N(CCC(C)C)CCN(C)C	8.2	1.7	/	i	/	/	/
Cc1nc2nc(N)nc(OCc3ccccc3)c2nc1C	-1.6	3.6	i	i	/	0.64	0.3
COC(=O)C1=CN(Cc2cccs2)C=C(C(=O)OC)C1c1cccc(O)c1	-11	2.2	i	i	4%	0.67	11
O=C(COC(=O)CNC(=O)c1ccco1)NCCN1C(=O)CSC1=O	/	3.7	0.4	/	5%	0.69	1.9

5 entries out of the list, arranged by formula weight, falling.
SMILES	AF4-AF9 inh	HNF4A DNA FP	UCH37 DUB inh	FGF22 binding	Vif A3G	Ecoli growth	RanGTP-Impb inh
COC(=O)C1=CN(Cc2cccs2)C=C(C(=O)OC)C1c1cccc(O)c1	-11	2.2	i	i	4%	0.67	11
COc1ccc(C2C(C(C)=O)=C(O)C(=O)N2c2nccs2)cc1OC (stereo not given)	/	1.6	11	/	/	0.71	1.4
COc1cc(NC(=S)NCc2cccnc2)c(OC)cc1Cl	1.1	1.5	-0.4	i	2%	0.66	0.2
Cc1c(F)cccc1NC(=O)CSCC(=O)Nc1ccccc1	/	2.7	3.4	/	5%	0.82	1.0
Cc1nc2nc(N)nc(OCc3ccccc3)c2nc1C	-1.6	3.6	i	i	/	0.64	0.3

Carrying on.
SMILES	AF4-AF9 inh	HNF4A DNA FP	UCH37 DUB inh	FGF22 binding	Vif A3G	Ecoli growth	RanGTP-Impb inh
COc1ccc(-n2nc3c(c2NC(=O)COc2ccccc2)CS(=O)(=O)C3)cc1	-0.2	-1.6	1.2	i	/	0.71	1.7
CCCCOC(=O)Nc1cc(C(=O)OC)ccc1C(=O)OC	/	6.5	-32	/	-3%	0.69	7.0
O=C(O)CC(c1ccc(Cl)cc1)n1cccc1 (stereo not given)	/	2.1	2.1	/	2%	0.77	-0.9
CCN(CC)C(=O)C1=C(C)N(CCC2=CCCCC2)C(=O)C(CC(=O)NCCc2ccccn2)C1 (stereo not given)	-0.6	-6.7	/	i	-2%	/	/
COc1cccc(NC(=O)COC(=O)c2ccccc2SCC(=O)N2CCCC2)c1	-0.7	4.0	0.7	/	9%	0.68	1.7
O=C(Nc1nnc(CCN2CCOCC2)s1)c1ccccc1	/	-3.1	5.3	/	-1%	0.72	-0.5
COc1ccc(N2CCN(C(=O)Nc3ccccc3C)CC2)cc1	1.2	1.7	4.1	i	/	0.7	5.2
Cn1cc(/C=N/NC(N)=S)c2ccccc21	2.8	-0.9	/	i	2%	/	3.1
O=C(NN1CCOCC1)c1ccc(Cl)cc1	/	1.8	0.3	/	0%	0.67	-1.9
Cc1ccccc1N(C)C(=O)c1coc(=O)c2ccccc12	/	-4.7	2.8	/	-1%	0.69	-2.2
CCOc1ccccc1NS(=O)(=O)c1ccc2[nH]c(=O)ccc2c1	-2.3	4.2	2.2	i	12%	0.65	8.0
C=CCNc1nnnc2c1sc1nc(N3CCOCC3)c3c(c12)CCCC3	3.9	3.3	2.3	i	9%	0.7	-1.2
O=C(NCCc1ccc(F)cc1)N[C@@H](Cc1ccccc1)C(=O)O	2.3	1.8	0.3	i	-6%	0.66	4.3
CCCCN(C)C(=O)c1nc2ccccn2c1CN1CCC[C@H]1C(=O)OC	0.2	1.8	2.6	i	0%	0.71	3.6
CCC1CC2(C)NC(=O)c3c(sc4c3CC(C)(C)OC4)N2C1=O (stereo not given)	/	-6.0	/	/	-3%	/	-3.7
O=C(Nc1ccc(NC(=O)c2ccc([N+](=O)[O-])cc2[N+](=O)[O-])cc1)c1ccco1	-3.2	-0.2	1.1	i	11%	0.66	2.4
COc1cccc(-c2nnc(SCC(=O)NC3CCS(=O)(=O)C3)n2C)c1 (stereo not given)	-3.4	0.3	2.3	i	5%	0.66	/
CCOC(=O)c1c(O)c2cc(Cl)ccc2n(CC)c1=O	-1.1	4.9	/	i	/	/	0.5
Cc1nn(C2CCCO2)c(=O)nc1N (stereo not given)	0.1	/	3.4	i	-6%	0.68	-0.9
COc1ccccc1CNC(=O)CN1CCC(n2cnc3cc(F)ccc32)CC1	1.5	0.7	1.3	i	/	0.68	-1.5
O=c1cc(N2CCCCC2)c(-c2ccccc2)nn1Cc1ccc(F)cc1	0.7	-3.0	2.8	i	-8%	0.7	-2.1
O=C(CSc1nnc(C2CC2)n1Cc1ccccc1)NCc1ccccc1	/	2.8	5.8	/	0%	0.7	0.3
COCC(=O)Nc1cccc(Br)c1	/	-2.9	-0.6	/	1%	0.68	-0.7
COc1cc(CCCN2CCNC[C@@H]2Cc2ccccc2)cc(OC)c1OC	2.9	-0.2	-1.9	i	/	0.76	6.3
CCc1nc(SCC(=O)Nc2ccc(N(C)C)cc2)n[nH]1	7.5	-2.6	1.8	i	4%	0.7	4.9
Oc1ccccc1-c1nnc(COc2ccccc2)o1	3.9	5.6	0.9	i	14%	0.74	3.5
Cc1csc2c(=O)n3c(nc12)CCCCC3	/	1.5	-1.3	/	3%	0.71	-0.8
ON1C(c2ccc(Cl)cc2Cl)N(O)[C@H]2CCCC[C@H]21 (stereo not given in full)	/	0.7	4.0	/	17%	0.77	3.5
CCNC(=S)N(CCc1c(C)[nH]c2ccc(C)cc12)Cc1cccs1	4.5	1.5	4.5	i	-10%	0.7	1.1
Cc1cccc(C)c1NC(=O)c1ccc(-c2ccc(Cl)cc2Cl)o1	/	-0.3	-0.8	/	20%	0.71	-1.1
COC(=O)c1ccc(C23CC4(C2)[C@H](CN(Cc2ccc(-c5ccccc5)cc2)[C@@H]4c2ccccc2)C3c2ccccc2)cc1 (stereo not given in full)	/	23	-2.5	i	/	/	3.4
C/C(=N\NC(=O)c1ccncc1)c1cccc(NC(=O)c2ccc(C(C)(C)C)cc2)c1	2.1	1.6	/	i	/	/	6.8
CSc1cccc(NC(=O)OC2CCCCCCCCCCC2)c1	-2.5	1.2	/	i	24%	/	-3.2
CCN(CC)CCn1c2c(c(SCC(=O)Nc3ccccc3Cl)nc1=O)CCC2	-0.9	2.1	4.5	i	-4%	0.68	8.9
CCN(CC(=O)Nc1c(F)cccc1F)C(=O)CSc1ccccc1	-9.3	-3.7	-0.1	i	-9%	0.67	?
C#CCOCCOCCOCCNc1nc(N2CCOCC2)nc(N2CCN(C(=O)[C@H](CO)n3cc([C@@H](N)C(C)C)nn3)CC2)n1	3.7	3.3	0.6	i	/	/	/
Cc1occc1-c1nnc(SCC(=O)NCc2ccco2)n1CC(C)C	/	-3.5	1.1	/	?	0.71	3.2
O=C(c1ccco1)c1nnn(Cc2ccccc2)c1-c1ccccc1	0.6	-0.2	1.7	i	7%	0.69	-4.7
COc1ccccc1CNc1nc2nc3c(c(=O)n2[nH]1)CCC3	/	1.7	-1.4	/	3%	0.72	-4.6
O=C(CNCCc1ccc(Cl)cc1Cl)NCc1ccco1	4.5	1.9	2.6	i	-4%	0.67	0.4
